HSD17B inhib: HSD17B dehydrogenase inhibition; Potency, µM (doses to about 57.1 µM), inactives show at the highest dose activity change, negative = inhibition, hits mostly inhibitors; Q99714; recombinant HSD17B10, NADH fluorescence kinetic; many of its hits are not listed in these tables; 7.6% of 75,000 active; AID 893; active means well fitted inhibition curve with a large enough effect; inconclusive means small, poorly fitted or top-dose-only effect; inactive means no such curve, though single readings can be large or run the other way;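 further: the protocol describes HADH2 (HSD17B10) and not the HSD17B4 of the title; nearly all actives have a fitted effect of over 70% in size; most hits overshoot -100% by far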
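Enzyme plus compound, 15 min room temperature; substrate mix added (NAD+ 1 mM, beta-hydroxybutyryl-CoA 90 uM final); plates read kinetically for NADH fluorescence. HADH2 was His-tagged, E. coli-derived, 20 nM.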
Starred values were filed as active, the others as inactive; ? = inconclusive; & = joins results of further samples; [ ] = dose if it differs, or a comment. On the % scale 0 is the no-effect control and ±100 the full control effect; potency means the concentration at half of the fitted maximal effect. This is a subset (hit frequency here may not be typical).

no.	Structure	HSD17B inhib
1	O=C(NC(Cc1ccccc1)c1nc2ccccc2[nH]1)C1CC(=O)N(c2ccc3c(c2)OCCO3)C1 (stereo not drawn)	-3.3%
2	COC(=O)[C@@]1(Cc2ccccc2)[C@H]2c3cc(C(=O)N4CCCC4)n(Cc4cccc5ccccc45)c3C[C@H]2CN1C(=O)c1ccccc1	2.9%
3	CS(=O)(=O)Nc1ccc(S(=O)(=O)Nc2nccs2)cc1	2.7%
4	CN(C)c1ccc(-c2nccc(Nc3ccc(F)cc3)n2)cc1	7.94µM*
5	Cc1cc(C)c(C)c(OCCOCCN2CCOCC2)c1	4.6%
6	Cc1ccc2c(c1)C(C)(C)[C@]1(C)NC(=O)CCN21	7.8%
7	O=C(c1ccccc1)c1ccc2nc[nH]c2c1	0.2%
8	O=C1c2cccnc2C(O)N1C1CCCCC1 (stereo not drawn)	11.4%
9	COc1ccc(OC)c(N(CC(=O)Nc2ccc3c(c2)OCCO3)S(C)(=O)=O)c1	0.4%
10	COc1cc(NC(=O)C2CCCN2C(=O)C2CCC(C)CC2)cc(OC)c1OC (stereo not drawn)	10.5%
11	Cc1cc(Cl)ccc1OCC(=O)Nc1ccccc1N1CCOCC1	-3.4%
12	CCCCNC(=O)OCC(CC)NC(=O)OC(C)C (stereo not drawn)	8.6%
13	COc1ccc(S(=O)(=O)Nc2ccccc2C(=O)NCc2ccco2)cc1Br	20µM*
14	COc1ccc(Cn2c(CCC(=O)N3CCN(c4ccccn4)CC3)nc3ncccc3c2=O)cc1	0.3%
15	O=c1[nH]c2ccccc2c(=O)n1Cc1ccco1	-27.0%
16	CC(C)CNc1cc(=O)n(C)c(=O)n1C	7.1%
17	COc1cc(C(=O)Nc2cccc(-c3nc4ccccc4o3)c2C)cc(OC)c1OC	?
18	Cc1noc(C)c1S(=O)(=O)Nc1ccc(C(=O)NC2CCCCCC2)cc1	-0.5%
19	Cc1noc(C)c1-c1nc(N(C)Cc2ccco2)c2ccccc2n1	-22.2%
20	O=C(NCc1ccccc1)NC1(C(=O)N2CCOCC2)CCCCC1	8.5%
21	CCCc1cc2c(n1Cc1ccc(OC)cc1)C(C)C1CN(C(=O)c3ccccc3)C(C)(C(=O)OC)C21 (stereo not drawn)	-1.8%
22	CC1(C)C(=O)OC(c2c(F)c(F)c(F)c(F)c2F)C2(CCCCC2)C1=O (stereo not drawn)	-0.2%
23	O=C(O)CSc1nnc(Cn2nnc3ccccc32)n1CCc1ccccc1	?
24	CCCC(=O)Nc1ccccc1-c1nnn(CC(=O)Nc2ccc(OC)cc2)n1	2.9%
25	Cc1c(C(=O)O)c(-c2ccccc2)nn1-c1ccccc1	11.9%
26	CCOC(=O)c1[nH]c(C)c(C(=O)OCC(=O)N2CCCCC2C)c1C (stereo not drawn)	2.9%
27	Cc1cccn2cc(CCNS(=O)(=O)c3ccc4c(c3)OCCO4)nc12	?
28	O=C(COC(=O)c1ccco1)Nc1ccc2c(c1)OCCO2	13.1%
29	N=c1c[n+](N2CCOCC2)[n-]o1	12.6µM*
30	CN1CCN(C(=O)c2cc3nc(-c4ccc(Cl)cc4)cc(C(F)(F)F)n3n2)CC1	25.1µM*
31	Cc1cc(NC(=O)CSc2nnc(-c3ccncc3)n2N)ccc1Br	-8.9%
32	O=C(Nc1ccc(N2CCN(C(=O)c3ccc(Cl)cc3)CC2)cc1)c1ccc(Br)o1	-1.4%
33	CC(C)CN1CC[C@@]2(CCCN(C(=O)c3cccc(F)c3)C2)C1	-4.9%
34	COc1cccc(NC(=O)CSc2nncn2N)c1	8.4%
35	O=C1c2ccccc2NC(c2ccc(F)cc2)N1Cc1ccco1 (stereo not drawn)	31.6µM*
36	COC(=O)[C@@H]1[C@@H]2C[C@H]3c4[nH]c5cc(OC)ccc5c4CCN3C[C@@H]2C[C@H](OC(=O)/C=C\c2cc(OC)c(OC)c(OC)c2)[C@H]1OC	-16.7%[25.6 µM]
37	CC12CCC(C(=O)Nc3ccc4c(c3)OCCO4)(OC1=O)C2(C)C (stereo not drawn)	4.0%
38	C/C(NC(=O)c1ccccc1)=C1/C(=O)CC2C1C2(C)C (stereo not drawn)	-2.1%
39	COc1ccc(-n2nc(C(=O)Nc3ccc4c(c3)OCO4)c3c4ccccc4n(C)c3c2=O)cc1	-6.7%
40	CN1C=CC=C/C1=C(\C#N)c1nc2ccccc2[nH]1	-3.7%
41	Cc1ccccc1-c1cncnc1NCc1ccccc1	-10.0%
42	COCCN(C(=O)Cn1nnc2ccccc21)C(C(=O)NC1CCCC1)c1cccc(OC)c1OC (stereo not drawn)	-3.4%
43	CC(=O)OC[C@@H]1O[C@H](C/C=N\O[C@@H](C)c2cn([C@H](CO)Cc3ccccc3)nn2)C=C[C@@H]1OC(C)=O	0.9%&1.2%[11.4 µM]
44	COc1ccc(-n2cnc3c(cnn3CCC#N)c2=N)cc1	8.0%
45	COC(=O)CS(=O)(=O)c1cc(Br)cc2c1N(C(C)=O)CC2	-7.7%
46	Cc1c(NC(=O)Nc2ccc(Cl)c(Cl)c2)c(=O)n(-c2ccccc2)n1C	-6.1%
47	CCOC(=O)N1CCC(NS(=O)(=O)c2cc3c(cc2Cl)NC(=O)CO3)CC1	-7.0%
48	CCC(=O)c1ccc(OCC(=O)Nc2nn3cnnc3s2)cc1	1.2%
49	COC(=O)c1ccc(NC(=O)CN2C(=O)CCC2=O)cc1	4.0%
50	COc1ccc2nc(NC(=O)CSc3nc4cccnc4n3C)sc2c1	?
51	CCOC(=O)NC(C(F)(F)F)(C(F)(F)F)P(=O)(c1ccccc1)c1ccccc1	-4.3%
52	Cc1ccc(-n2ncc3c(=O)[nH]c(SC(C)C)nc32)cc1	0.1%
53	CCCCN(CCCC)S(=O)(=O)c1ccc(C(=O)Nc2nnc(CSC)o2)cc1	0.6%
54	Cc1cccc2nc(C(F)(F)F)nc(=O)n12	-1.7%
55	COc1ccc(S(=O)(=O)N(C)CC(=O)Nc2ccc3c(c2)OCCO3)cc1OC	2.3%
56	Cc1ccc(O)c(-c2cc(C(F)(F)C(F)F)[nH]n2)c1	-24.0%

(next part)
no.	Structure	HSD17B inhib
57	COc1ccc(C(=O)Oc2c(CN3CCOCC3)cc(Cl)c3cccnc23)cc1	-0.7%
58	O=C(COc1ccc(Cl)cc1)OCC(=O)N1CCCC1	9.1%
59	Cc1cc2nnc(SCC(=O)N3C(C)CCCC3C)n2c(N)n1 (stereo not drawn)	2.5%
60	Cc1cnc(-c2nnc(N(C)C(=O)c3cccnc3)s2)cn1	42.0%[activator]
61	O=C1CSc2ccc(C(=O)N3CCN(c4ccccn4)CC3)cc2N1	3.6%
62	c1ccc(-n2c(Sc3cnccn3)nnc2-c2cccs2)cc1	-8.1%
63	CCOC(=O)CSc1nnc(CSc2nc3ccccc3s2)n1C	2.1%
64	COc1ccc(C2C(C(=O)NCCN(C)C)c3cc(OC)c(OC)cc3C(=O)N2C)cc1OC (stereo not drawn)	7.6%

Random excerpt: six records from the list, in no set order.
no.	Structure	HSD17B inhib
44	COc1ccc(-n2cnc3c(cnn3CCC#N)c2=N)cc1	8.0%
46	Cc1c(NC(=O)Nc2ccc(Cl)c(Cl)c2)c(=O)n(-c2ccccc2)n1C	-6.1%
5	Cc1cc(C)c(C)c(OCCOCCN2CCOCC2)c1	4.6%
13	COc1ccc(S(=O)(=O)Nc2ccccc2C(=O)NCc2ccco2)cc1Br	20µM*
22	CC1(C)C(=O)OC(c2c(F)c(F)c(F)c(F)c2F)C2(CCCCC2)C1=O (stereo not drawn)	-0.2%
10	COc1cc(NC(=O)C2CCCN2C(=O)C2CCC(C)CC2)cc(OC)c1OC (stereo not drawn)	10.5%

(cont.)
no.	Structure	HSD17B inhib
65	CCOC(=O)c1c(N)n[nH]c1-c1ccc(OC)cc1	2.3%
66	CC1=C(C(=O)N(C)C)C(c2cccc(Cl)c2)NC(=O)N1 (stereo not drawn)	2.7%
67	CO[C@H]1COC(=O)C/C=C\[C@H](C)COC(=O)[C@@H](OCc2ccccc2)/C=C\[C@@H]1C	-3.8%[11.4 µM]
68	COc1cccc(N2C(=O)C3CCCN3C2c2ccc(Cl)cc2)c1 (stereo not drawn)	1.5%
69	Cn1c(SCC(=O)OCC(=O)c2ccccc2)nnc1-c1cccs1	-23.4%
70	CCOC(=O)C(O)(CCC(O)(C(=O)OCC)C(=O)OCC)C(=O)OCC	-0.5%
71	c1ccc(OCCn2c(-c3ccco3)nc3ccccc32)cc1	31.6µM*
72	CCN1CCN(c2ccc(-n3c(C)nc4c(cnn4-c4ccccc4Cl)c3=O)cc2)CC1	9.3%
73	CC(C)(C)NC(=O)Cn1c(=O)oc2ccc(Cl)cc21	3.8%
74	CCCCOc1ccc(-c2ncc(C(=O)O)c(C)n2)cc1	-15.6%
75	CCOc1cccc2cc(C(=O)NCc3cccnc3)c(=O)oc12	2.3%
76	Cc1ccc(C2CC(c3ccc(Cl)cc3)n3nc(N)nc3N2)cc1 (stereo not drawn)	9.0%
77	CCOC(=O)CSC1=Nc2ccccc2C2=NC(CC(=O)NCc3cccs3)C(=O)N12 (stereo not drawn)	?
78	CC(=O)N1CCC2(CCCN(c3ncccn3)C2)CC1	?
79	O=C1OC(Nc2nccs2)c2ccccc21 (stereo not drawn)	-0.9%
80	CCN(CC)C(=O)CN(Cc1ccccc1)S(=O)(=O)c1ccc(F)cc1	0.0%
81	CCOC(=O)CCCNC(=O)c1cncc(Br)c1	-1.4%
82	N#Cc1ccsc1NC(=O)c1ccccn1	-1.2%
83	Cc1ccc(NC(=O)CSc2nnc(Cn3c(=O)sc4ccccc43)n2C)cc1Cl	0.2%
84	Cc1cc(C)nc(NC(=NCCc2c[nH]c3ccccc23)NC(=O)c2ccco2)n1	-7.8%
85	COc1ccc2c(c1)C(C)=CC(C)(C)N2C(=O)CSc1nnc(-c2ccc(C)cc2)o1	-5.3%
86	N#Cc1ccc(CSc2nnc(-c3cccnc3)n2-c2ccccc2)cc1	6.8%
87	CCOc1cc(N2CCOCC2)c(OCC)cc1NC(=O)CN1C(=O)NC(Cc2ccccc2)C1=O (stereo not drawn)	3.6%
88	c1cncc(-c2cccnc2)c1	10.5%

Given as labelled records: part of the list above
[81] CCOC(=O)CCCNC(=O)c1cncc(Br)c1
  HSD17B inhib: -1.4%
[82] N#Cc1ccsc1NC(=O)c1ccccn1
  HSD17B inhib: -1.2%
[84] Cc1cc(C)nc(NC(=NCCc2c[nH]c3ccccc23)NC(=O)c2ccco2)n1
  HSD17B inhib: -7.8%

(more compounds)
no.	Structure	HSD17B inhib
89	COc1ccc(N(CC(=O)Nc2cccc(C(C)=O)c2)S(C)(=O)=O)cc1OC	-0.8%
90	CC1Cc2ccccc2N1C(=O)Cc1cccs1 (stereo not drawn)	-1.4%
91	Cc1ccc(-n2c(SCC(=O)Nc3ccc4cn[nH]c4c3)nnc2-c2ccco2)cc1	25.1µM*
92	COc1ccc2cc(C#N)c(SCC(=O)N3CCCC3)nc2c1	25.1µM*
93	Cc1cccc(N2CCN(C(c3ccccc3)c3nnnn3CC3CCCO3)CC2)c1C (stereo not drawn)	-5.0%
94	COc1ccc2cccc(N3CCN(CCNC(=O)c4ccc(F)cc4)CC3)c2c1	31.6µM*
95	O=C(O)COc1ccc(C(=O)Cc2ccc3c(c2)OCCCO3)c(O)c1	6.9%
96	COc1ccccc1-c1nc(NCCNC(C)=O)c2ccccc2n1	-15.4%
97	COC(=O)c1c[nH]n2c(=O)c(Cc3ccc(F)cc3Cl)c(C)nc12	?
98	COC(=O)Cn1cc(C(=O)c2cccs2)c2ccccc21	-19.2%
99	COc1ccc2c(=O)c(OC)c(-c3ccccc3)oc2c1	0.631µM*
100	Cn1c(=O)[nH]c(=O)c2c1nc(SCCN1CCCCC1)n2Cc1ccccc1	2.1%
101	COc1cccc(OC)c1C(=O)N1CCN(Cc2ccccc2C(F)(F)F)CC1	-16.7%
102	Cc1c(C)c2c(c(C)c1O)CC[C@@](C)(CN1CCN(c3cc(N4CCCC4)nc(N4CCCC4)n3)CC1)O2	-14.3%
103	O=C(COc1ccc(Cl)cc1Cl)Nc1ccc(Cl)cn1	4.7%
104	Cc1nn(C)c(C)c1NC(=O)c1ccc(S(=O)(=O)N(C)C)cc1	10.7%
105	O=C(NC1=NCCS1)c1ccc(-c2ccc(Cl)cc2)o1	31.6µM*
106	O=C1COc2ccc(C(=O)CSc3nnnn3-c3ccccc3)cc2N1	-9.2%
107	C#CCCCO/N=C1/C[C@@H](O)[C@@H](O)[C@@H]2[C@@H]3C(=O)N(CCC(=O)OCC)C(=O)[C@H]3CC[C@@H]12	5.1%[11.4 µM]
108	COC(=O)c1[nH]c2ccccc2c1NS(=O)(=O)c1ccc(OC)cc1OC	-0.1%
109	CC1CCN(CC(=O)Nc2ccccc2C#N)CC1	-9.1%
110	Cc1cc(C)n(-c2nc(NCC3CCCO3)c3c4c(sc3n2)COC(C)(C)C4)n1 (stereo not drawn)	25.1µM*
111	CC(NS(=O)(=O)c1ccc(OCC(=O)N2CCOCC2)c(Cl)c1)c1ccccc1 (stereo not drawn)	-2.4%
112	C[C@@H]1C[C@H](OC(=O)c2ccccc2O)CC(C)(C)C1	-5.6%[25.6 µM]
113	O=C(NC1CCCCC1)C1CCCN1C(=O)NCc1ccccc1 (stereo not drawn)	3.5%
114	O=C(O)C[C@@H](C(=O)O)c1ccccc1[N+](=O)[O-]	1.8%[11.4 µM]
115	CS(=O)(=O)N1CCC(C(=O)Nc2ccccc2Sc2ccccc2)CC1	11.1%
116	O=C(Cn1c(=O)n(CCC(=O)N2CCc3ccccc3C2)c(=O)c2ccccc21)NCC1CCCO1 (stereo not drawn)	-11.3%
117	Cn1c(=O)n(Cc2ccco2)c(=N)c2c3c(sc21)CCC3	-2.9%
118	COc1ccc(-c2ccc(-c3noc(-c4ccccc4)n3)c(OC)n2)cc1	10µM*

Screens as filed in PubChem.
